Screening data from PubChem.
NPYLR7 agonist – mosquito NPYLR7 agonism. HEK293T NPYLR7/Galpha15, GCaMP6s calcium fluorescence. activation, % at 10 µM. hit rate 0.15% among 270,000; in the data active = activation above about 40%;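 also: 0% = vehicle and 100% = reference agonist at the receptor; some compounds past the cut are filed as inactive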
NPYLR7 agonist max-min – recorded beside NPYLR7 agonist, whose call it bears; activation, %; measured here: Max-Min RFU normalised activation; some inactives read as strong as hits;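 span of the calcium signal over five minutes; 0% = vehicle and 100% = native peptide agonist; compound fluorescence can raise it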
Numbers without * were called inactive; & = joins results of further samples. These rows are one share of the data, so the mix of outcomes need not match the whole.

Sample of the layout:
SMILES	NPYLR7 agonist	NPYLR7 agonist max-min
COC(=O)C1CCCCN1Cc1nc(-c2cc3c(cc2Cl)OCO3)oc1C (stereo not drawn)	6&6	1&9
O=c1c2nc(N3CCCC3)sc2c(-c2ccccc2)nn1CCc1ccccc1	-5	-8
O=C(CNc1ccccc1N1CCCCC1)Nc1ccc(Br)cc1	1	-2
CS(=O)(=O)c1ccc(-c2c(-c3ccccc3)ncn2CCCO)cc1	3	-2
Cc1ccc(-c2nc(C=Nc3cccc(F)c3)c(O)o2)cc1	-4	-10
O=C1NC(=O)C(=Cc2ccc(Cl)cc2)N1	0	1

This part in full, repeating the preview:
SMILES	NPYLR7 agonist	NPYLR7 agonist max-min
COC(=O)C1CCCCN1Cc1nc(-c2cc3c(cc2Cl)OCO3)oc1C (stereo not drawn)	6&6	1&9
O=c1c2nc(N3CCCC3)sc2c(-c2ccccc2)nn1CCc1ccccc1	-5	-8
O=C(CNc1ccccc1N1CCCCC1)Nc1ccc(Br)cc1	1	-2
CS(=O)(=O)c1ccc(-c2c(-c3ccccc3)ncn2CCCO)cc1	3	-2
Cc1ccc(-c2nc(C=Nc3cccc(F)c3)c(O)o2)cc1	-4	-10
O=C1NC(=O)C(=Cc2ccc(Cl)cc2)N1	0	1
Cc1ccc(Cc2nsc(N3CCN(C(=O)C(C)(C)CCl)CC3)n2)cc1	-11	-12
C=CCCC(O)(CCC=C)c1ccc(CN(CCOC)Cc2ccc(OC)c(OC)c2)o1	3	0
CC(=O)Nc1cccc(-c2ccc3c(c2)CCC3=O)c1	-4	-6
Cc1ccc2nc(CNC3CCCc4ccccc43)cc(=O)n2c1 (stereo not drawn)	2&12	-2&7
O=C(NCCn1nc(-c2cccs2)ccc1=O)c1cccc(C(F)(F)F)c1	1	0
CC(C)NC(=O)COc1ccc(N(C)S(=O)(=O)c2ccc(Br)cc2)cc1	-2	-4
COC[C@H]1CCCN1C(=O)CC(=O)Nc1cc(C)cc(C)c1	8	4
CC/C(Cc1ccccc1)=N/NC(=O)Cn1cnc([N+](=O)[O-])n1	-11	-15
CCOC(=O)C(C#N)=Cc1cn(CCC#N)nc1-c1ccc(Br)cc1	6	8
COc1cc(OC)cc(C(=O)Nc2ccc(-c3nc4ccccc4o3)cc2)c1	1	10
O=[N+]([O-])c1cc(Cl)cc(C=NNc2ccnc3cc(Cl)ccc23)c1O	-2	-3
CCN(C(=O)C1CCCO1)c1ccccc1 (stereo not drawn)	10	4
COc1cccc(C(=O)N(CCN2CCOCC2)Cc2nccn2Cc2ccccc2C(F)(F)F)c1	5	12
Cc1cc(S(=O)(=O)N2CCCN(C(N)=O)CC2)ccc1OC(C)C	8	6
CC1CN=C(N2CCN(C(=O)Nc3nc(C4CC4)cs3)CC2)S1 (stereo not drawn)	4	2
Cc1ccc(Cn2c(C)c(C(=O)NCCC#N)sc2=O)cc1	13	6
Cc1ccc(-n2c3c(c(=O)[nH]c2=O)C(NS(=O)(=O)c2ccc(C)cc2)(C(F)(F)F)C(=O)N3)cc1 (stereo not drawn)	-8	-12
CN(CCCN1CCC(C(=O)NC(c2ccccc2)c2ccsc2)CC1)S(C)(=O)=O (stereo not drawn)	-3	-7
c1ccc(Cc2cc(C3CCN(Cc4cc5n(n4)CCNC5)CC3)n[nH]2)cc1	7	6
SMILES	NPYLR7 agonist	NPYLR7 agonist max-min
CCN(CC)c1cc(-c2ccccc2)nc(SCc2ccc(C(=O)NCCN3CCOCC3)o2)n1	13	8
CNc1snc(C)c1C(=O)Nc1cc(OC)c(OC)c(OC)c1	22	11
COc1ccc(S(=O)(=O)n2nc(C)c(S(=O)(=O)N3CCOCC3)c2C)cc1C	3	-1
COc1ccccc1N1CCN(C(=O)c2ccc(F)cc2)CC1	1	-5
COc1cccc(-c2cc(NC=O)c3ncc(-c4ccc(C(C)=O)cc4)n3c2)c1	-3	-6
Cc1cc2ncn(Cc3cc(C#N)ccc3F)c2cc1C	20	15
CC1CN(C)C(C)c2cc[nH]c21 (stereo not drawn)	-1	-6
Cn1c(=O)n(C)c2cc(CNC(=O)c3ccc4nc(C5CCCCC5)oc4c3)ccc21	-6	-10
CCN(CC)c1ccc(NC(=O)CCCn2nc(-c3ccco3)ccc2=O)c(C)c1	1	2
Cc1onc(-c2ccccc2Cl)c1C(=O)N1CCCC(C)C1 (stereo not drawn)	5	6
COC(=O)CC(=O)N1CCN(CC(OCc2ccc(C(=O)OC)cc2)c2ccc(Cl)cc2)CC1 (stereo not drawn)	1	9
Cc1ccc(-n2cc(CNCCc3cnccn3)c(-c3cccc(C)c3)n2)cc1	9	-2
Cc1ccc(-c2nnc(SCc3nc(-c4ccsc4)no3)n2C)cc1	7	2
O=C(Nc1ccc(F)cc1)C1CCc2ccccc2N1 (stereo not drawn)	6	3
CCOC(=O)c1ccc(NC(=O)CSc2nnc(CNC(=O)c3cccs3)n2-c2ccccc2OC)cc1	6	9
c1cnn(CCC2CCN(c3ncnc4c3CCNC4)CC2)c1	5	5
O=C(NCc1ccco1)c1ccc(CSc2nc(Cl)cc(N3CCN(c4ccc(Cl)cc4)CC3)n2)cc1	17	15
CC(C)CCN1CCC(CN)CC1	22	12
Cc1cc(C)cc(C(=O)NNC(=O)c2ccoc2C)c1	5	-1
CCN(CC)c1onc(-c2ccccc2)c1CNCCN(C)C	4	7
C#CCOCC(O)CN(Cc1cccc(OC)c1)CC1CCCO1 (stereo not drawn)	30	28
CC(C)(C)c1ccc(S(=O)(=O)NC(=O)C2(C)CCN2C(=O)C2CCCCC2)cc1 (stereo not drawn)	2	-2
Cc1ccc(-c2nc3ccccn3c2NC(=O)COc2ccccc2)cc1	6	3
O=C(Nc1c(Cl)ccc2c1C(=O)c1ccccc1C2=O)c1ccco1	-6	-14
Nc1cc(-c2ccc(Cl)c(Cl)c2)nn1-c1ccc(C(=O)NCc2ccccn2)cc1	0	-7

Whole records from above.
Shown for COc1ccccc1N1CCN(C(=O)c2ccc(F)cc2)CC1 → NPYLR7 agonist = 1; NPYLR7 agonist max-min = -5
Shown for Cc1ccc(-n2cc(CNCCc3cnccn3)c(-c3cccc(C)c3)n2)cc1 → NPYLR7 agonist = 9; NPYLR7 agonist max-min = -2

Next structures:
SMILES	NPYLR7 agonist	NPYLR7 agonist max-min
COCCN1CCCC(O)(CNCc2ccccc2C(F)(F)F)C1=O (stereo not drawn)	18	8
Cc1nc(C)c(COc2ccc(N(C)C(=O)NC(C)C)cc2)s1	6	5
CC(=O)C(C(=O)N(C)C)n1cnc2c(nnn2-c2ccc(OC(F)(F)F)cc2)c1=O (stereo not drawn)	-4	-9
CCN(CC)S(=O)(=O)c1ccc(CN2C(=O)C3(CC(=O)N(CCC(F)(F)F)C3=O)c3cc(Cl)ccc32)cc1 (stereo not drawn)	-9	-13
CCOC(=O)c1cc(-c2ccc(F)cc2)n(C2CCN(C(=O)c3ccc(OC)cc3OC)CC2)n1	5	3
CCCn1cc(C(=O)N2CCN(c3ccc(F)cc3)CC2)c2nn(-c3ccccc3)c(=O)c-2c1	7	6
C=CCN1C[C@H]2CN(C)c3ccccc3[C@@H]2N(C(=O)CCCCC)CCC1=O	4	11
Cc1ccc(-n2nnc3c(=O)n(CC(=O)Nc4cc(C)on4)cnc32)cc1	8	13
CC(=NNC(=O)CCn1c2ccccc2c2ccccc21)c1ccc(Br)s1	2	3
OCCOc1cncc(Br)c1	5	3
CCC(=O)Nc1cccc(C(=O)NCCN2CCNC2=O)c1	1	-5
COc1ccc(-n2cc(-c3ccc(OC(F)F)cc3)[n+]3c2CCCCC3)cc1	21	14
C=CCNC(=O)N(CC(C)C)C(CC)c1ccccc1 (stereo not drawn)	1	-2
COc1ccc(C(=O)C[n+]2ccc3c(c2)nc(-c2ccccc2)n3C)cc1	-7	-10
COCCNC(=O)C=Cc1csc(-c2ccc(OC)cc2)n1	1	8
N#Cc1ccc(C=NNc2ccc(C(F)(F)F)cn2)cc1	-7	-13
Cc1cccc(-n2c(=O)c3ccccc3n3c(=S)[nH]nc23)c1C	3	2
O=C(Nc1cccnc1N1CCN(C(=O)c2ccccn2)CC1)c1ccc2c(c1)OCO2	-3	10
c1ccc(Cn2ccnc2CNCC2CC2)cc1	6	16
Cc1nn(CCO)cc1CN(C)Cc1cc(-c2ccccc2)no1	-3	1
Cc1cc2nc(NCCN(C)C)sc2cc1C	-3	-3
CN1C(=C2C=NN(C)P2(=Nc2cccc([N+](=O)[O-])c2)N2CCOCC2)C(C)(C)c2ccccc21 (stereo not drawn)	-7	-11
CC1=NN(c2ccc(Br)cc2)C(=O)/C1=C/c1ccccc1OCc1ccccc1	4	12
O=C(Cn1nnc(-c2cccs2)n1)NC1CCCCCC1	6	9
CCCOC(=NCCCc1ccccc1)NC(=O)c1ccco1	11	15
SMILES	NPYLR7 agonist	NPYLR7 agonist max-min
Cc1nc2c(C)cccn2c(=O)c1NC(=O)Cc1ccc(-c2ccccc2)cc1	0	-1
COc1cc(OC)cc(C(=O)NCCCN=C2NS(=O)(=O)c3ccccc32)c1	1	2
CCCCc1nc2sc3c(NCCO)ncnc3c2c2c1COC(C)(C)C2	2	-2
CCSc1ccc(NC(=O)c2cccc(F)c2)nn1	1	0
CCS(=O)(=O)Oc1ccccc1CN(C(=O)NC(C)(C)C)C1CC1	-1	3
CCN(Cc1cnc2ccccc2c1)Cc1c(C)nn(CC)c1C	12	7
COCc1cnc2c(c1SCC(=O)N1CCCCCC1)c(=O)n(C)c(=O)n2C	3	2
COCCCN(Cc1csc(COc2c(OC)cccc2OC)n1)C(=O)c1ccccc1F	-2	5
O=S(=O)(c1cc(Cl)ccc1Cl)N1CCN(Cc2csc(-c3ccsc3)n2)CC1	-1	13
N#CCCN(C(=O)CN1CCCC1C1CCCCC1)c1ccccc1 (stereo not drawn)	0	-4
CC(N=C1NS(=O)(=O)c2ccccc21)C(=O)NCc1ccccc1 (stereo not drawn)	-9	-9
CC(C)Oc1cccc(F)c1-c1csc(C(N)=O)c1	-2	-4
COCC(=O)N1CCCN(C/C(C)=C/c2ccco2)CC1	-4	-12
CCOC(=O)C1(Cc2ccc(F)cc2F)CCCN(C(=O)c2ccc(OC)nc2OC)C1 (stereo not drawn)	5	5
COc1ccc(OC)c(S(=O)(=O)Nc2ccc(NC(=O)NCCc3ccccc3)cc2)c1	-27	-29
CCOCCCNC(=O)C1CN(S(=O)(=O)c2ccccc2)CCN1S(=O)(=O)c1ccccc1 (stereo not drawn)	-2	-7
Cc1cccc(C(=O)NNC(=O)CN2C(=O)c3ccccc3C2=O)c1	-7	-13
COCCNC(=O)c1ccc(CSc2nnc(-c3cccc(OC)c3)n2-c2cccc(Cl)c2)cc1	0	5
Cc1ccccc1-n1nc(C)c(CNC(=O)C2CCN(C(=O)OC(C)(C)C)CC2)c1C	-8	-13
COc1ccc(NC(=O)c2ccc(-n3cnc4ccccc4c3=O)cc2)c(OC)c1	7	3
O=C(CSc1nc2[nH]ncc2c(=O)[nH]1)Nc1ccccc1C(F)(F)F	1	0
COc1ccc(S(=O)(=O)N2CCN(CC(OCc3ccc(C(F)(F)F)cc3)c3ccc(Cl)cc3)CC2)cc1 (stereo not drawn)	32	20
O=C(c1ccc(Br)cc1)N1CCCC(OCc2ccc(OC(F)(F)F)cc2)C1 (stereo not drawn)	-2	2
C=CCN(CC(=O)N(CCc1ccc(OC)c(OC)c1)Cc1ccc(C)o1)C(=O)c1cccs1	2	9
Cc1ccc2[nH]c(C(=O)NCc3cccc(NC(=O)C(C)C)c3)cc(=O)c2c1	5	3
SMILES	NPYLR7 agonist	NPYLR7 agonist max-min
CC(=O)NC1(C(=O)NC2CCCC2)CCCCC1	4	2
Cc1cc(=O)oc2cc(OCc3ccc(C(=O)N(C)C)cc3)ccc12	2	-2
COc1cccc(NC2=CC(=O)N(CCO)C2=O)c1	5	6
CN(Cc1cccc(C(F)(F)F)c1)C(=O)c1cn(Cc2ccccc2Cl)nn1	7	4
COCCCn1c(CN2C[C@@H](C)O[C@@H](C)C2)cnc1S(=O)(=O)C1CCCC1	4	3
COc1ccc(CNC(=O)c2cnn3c(C(F)(F)F)cc(-c4ccc(OC)cc4)nc23)cc1	3	2
CC1CCN(Cc2nnnn2CC(=O)N2CCC(OCc3ccccn3)CC2)CC1	6	-1
Cc1cc(C(F)(F)F)nn1CC(=O)Nc1sc2c(c1C#N)CCC(C(C)(C)C)C2 (stereo not drawn)	-2	-7
CN1CCC(N(C)C(=O)c2cccnc2OCC(F)(F)F)C1=O (stereo not drawn)	4	1
CCc1nc2ccc(C(=O)NCc3ccc(OC)cc3)cn2c1N(CCN(C)C)CC1CC1	-2	-7
Cc1cc(C)cc(-n2c(SCC(=O)NCc3ccccc3Cl)nc3c(c2=O)SCC3)c1	3	-1
N#Cc1cc(F)c(NCc2ccc(F)cc2)c(F)c1	2	2
O=C(c1cccc(-c2cn[nH]c2)c1)N1CCOC(C(F)(F)F)C1 (stereo not drawn)	-3	-6
C=c1c([N+](=O)[O-])cccc1=c1[nH]/c(=C/C=C/c2ccccc2)c(=O)o1	-1	-4
Cc1ccc(C)c(-n2nc(-c3ccc(F)cc3)cc2C(=O)N2CCN(c3cccc(Cl)c3)CC2)c1	2	3
COc1ccc(-c2noc(CN(C)C(=O)C34CNCC3CNC4)n2)cc1 (stereo not drawn)	-11	-12
Cn1cc(C(=O)N2CCN(CC(N)=O)CC2)c2nn(-c3ccccc3)c(=O)c-2c1	-4	-9
COc1cccc(Cn2ccnc2CN(CC2CCCO2)C(=O)c2cccc(OC)c2)c1 (stereo not drawn)	-2	7
Fc1cc(F)c(F)c(OC[Si]23OCCN(CCO2)CCO3)c1F	0	-1
CCOC(=O)CC(=O)N1CCC(c2nc(-c3ccc(F)c(F)c3)no2)CC1	0	-1

A different layout for part of the listing above:
CC1CCN(Cc2nnnn2CC(=O)N2CCC(OCc3ccccn3)CC2)CC1
  NPYLR7 agonist: 6
  NPYLR7 agonist max-min: -1
O=C(c1cccc(-c2cn[nH]c2)c1)N1CCOC(C(F)(F)F)C1 (stereo not drawn)
  NPYLR7 agonist: -3
  NPYLR7 agonist max-min: -6
